# Compound activity as filed in PubChem.
# SARS PLpro yeast = qHTS of Yeast-based Assay for SARS-CoV PLP; AID 485353, 2010; S. cerevisiae expressing SARS-CoV PLpro, growth rescue; control for the full effect not named in the record; Potency, µM (top dose mostly 32.9 µM), inactives show top-dose activity, positive = growth rescue; actives 0.19% (n = 330,000); active means well fitted rising curve with a large enough effect; inconclusive means small, poorly fitted or top-dose-only effect; inactive means no such curve, though single readings can be large or run the other way; also: 0% is about no effect; nearly all actives have a fitted effect of over 55% in size; growth read by luminescence after 48 h
# Lassa entry inh = qHTS for Inhibitors of binding or entry into cells for Lassa Virus; Lassa virus pseudotype entry inhibition, cell reporter; control for the full effect not named in the record; Potency, µM (series often up to 37.9 µM), without a hit: at the highest dose activity change, negative = inhibition, actives largely listed as inhibitors; actives 1.2% (n = 300,000); active means well fitted inhibition curve with a large enough effect; inconclusive means small, poorly fitted or top-dose-only effect, or effect the other way; inactive means flat fitted curve, though single readings scatter; tested in HEK293 cells; also: % is scaled to controls: 0 for no effect and ±100 for the full control effect; nearly all actives have a fitted effect of over 50% in size; luciferase read-out
# Cruzain inh noDet = qHTS Assay for Promiscuous and Specific Inhibitors of Cruzain (without detergent); Potency, µM, without a hit: max response, negative = inhibition, usual class: inhibitors; actives 2.3% (n = 200,000); purified cruzain, Z-FR-AMC fluorescence, no detergent; Cruzipain (Trypanosoma cruzi), P25779;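 also: plate controls were enzyme without inhibitor for no effect and buffer without enzyme for full effect; nearly all actives have a fitted effect of over 40% in size; top concentration of the series not given in the record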
# Target sequence (P25779 123-467 limits assumed): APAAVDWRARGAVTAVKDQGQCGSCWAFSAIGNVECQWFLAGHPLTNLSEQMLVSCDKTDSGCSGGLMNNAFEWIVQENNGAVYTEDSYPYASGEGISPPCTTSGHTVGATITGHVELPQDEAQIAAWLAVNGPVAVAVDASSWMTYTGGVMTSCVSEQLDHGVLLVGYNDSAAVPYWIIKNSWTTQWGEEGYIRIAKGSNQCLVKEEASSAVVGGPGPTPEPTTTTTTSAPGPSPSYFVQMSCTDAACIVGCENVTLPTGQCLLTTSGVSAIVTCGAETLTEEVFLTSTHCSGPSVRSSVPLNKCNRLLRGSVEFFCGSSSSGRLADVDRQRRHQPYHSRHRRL
#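 Purified cruzain at 1.5 nM, pre-incubated 15 min with compound at room temperature in 100 mM sodium acetate pH 5.5, 5 mM DTT, 0.00005% Triton X-100. Reaction started with 2 uM Z-FR-AMC; AMC fluorescence increase over 60 s gives rate.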
# MARV entry inh = qHTS for inhibitors of binding or entry into cells for Marburg Virus; AID 540276, 2011; actives 1.8% (n = 300,000); Potency, µM (series often up to 37.8 µM), for the others: top-dose activity change, negative = inhibition, usual class: inhibitors; Marburg virus pseudotyped entry inhibition, cell reporter; control for the full effect not named in the record; about a third of the inactives were read at about 46 µM; active = well fitted inhibition curve with a large enough effect; inconclusive = small, poorly fitted or top-dose-only effect, or effect the other way; inactive = flat fitted curve, though single readings scatter; tested in HEK293 cells; about a fifth of its hits are not listed in these tables; also: % is scaled to controls: 0 for no effect and ±100 for the full control effect; luciferase read-out
# RE007 growth inh = qHTS Assay for Inhibitors of the HIV-1 protein Vpr | S. pombe RE007 Vpr strain, BacTiter-Glo ATP luminescence, 24 h; control for the full effect not named in the record | Potency, µM (highest dose often 92.2 µM), for inactives: at the highest dose activity change, negative = less growth | actives 0.21% (n = 360,000) | AID 651644, 2012; active = well fitted falling curve with a large enough effect; inconclusive = small, poorly fitted or top-dose-only effect; inactive = no such curve, though single readings can be large or run the other way;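 also: % is scaled to controls: 0 for no effect and ±100 for the full control effect; nearly all actives have a fitted effect of over 50% in size; the assay follows cell death caused by Vpr and the record does not say whether a fall means rescue or toxicity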
#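 Fission yeast RE007 carrying one integrated HIV-1 vpr copy, seeded at OD 0.01 in PMG+AL medium with 23 nL pinned compound. Grown 24 h at 30 degrees; viability read by BacTiter-Glo luminescence after 5 min.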
# NS1 function inh = qHTS Assay for Inhibitors of Influenza NS1 Protein Function. AID 2326, 2010. S. cerevisiae slowed by influenza A NS1, growth recovery by OD600. actives 0.4% (n = 270,000). Potency, µM (series often up to 46.1 µM), for the others: at the highest dose activity, positive = more growth; active means well fitted rising curve with a large enough effect; inconclusive means small, poorly fitted or top-dose-only effect; inactive means no such curve, though single readings can be large or run the other way; also: nearly all actives have a fitted effect of over 50% in size
#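 Recovery from NS1-induced slow growth read by OD600 in budding yeast switched to galactose assay medium (pH 6.0, -URA) at 1:100 dilution. Compound 23 nl per well; the matching strain lacking NS1 serves as control.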
# Cruzain Triton = qHTS Assay for Promiscuous and Specific Inhibitors of Cruzain (with detergent); Cruzipain (Trypanosoma cruzi), P25779; purified cruzain, Z-FR-AMC fluorescence, 0.01% Triton; Potency, µM, for inactives: max response, negative = inhibition, usual class: inhibitors; actives 0.43% (n = 200,000); AID 1478, 2009;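 also: plate controls were neutral wells for no effect and buffer without enzyme for full effect; nearly all actives have a fitted effect of over 40% in size; top concentration of the series not given in the record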
#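 Cysteine protease activity tested under reducing, mildly acidic conditions (100 mM sodium acetate pH 5.5, 5 mM DTT) plus 0.01% Triton X-100. Cruzain 1.5 nM; substrate Z-FR-AMC 2 uM; 15 min compound preincubation at room temperature.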
# StopGo reporter = High Throughput Screening for Foot and Mouth Disease Virus Antivirals; human cells with a luciferase reporter of 2A StopGo recoding; control for the full effect not named in the record; Potency, µM (highest dose often 57.9 µM), for inactives: top-dose signal change, negative = less light; actives 1.2% (n = 410,000); active = well fitted falling curve with a large enough effect; inconclusive = small, poorly fitted or top-dose-only effect; inactive = no such curve, though single readings can be large or run the other way; tested in HEK293T cells; also: % is scaled to controls: 0 for no effect and ±100 for the full control effect; nearly all actives have a fitted effect of over 45% in size; luciferase light after 4 h
# Starred values were filed as active, the others as inactive; ? = inconclusive; · = not tested or not shown; [ ] = another dose, or the depositor's remark. Unless noted, calls follow the shape of the dose curve; as a rule, active = well fitted curve in the direction sought with a large enough effect; inconclusive = small, poorly fitted or top-dose-only effect, or another doubt; inactive = no such curve, though single readings can be large; an effect the other way counts as inactive or inconclusive. Potency is read from the fitted curve at half-maximal effect.
SMILES,SARS PLpro yeast,Lassa entry inh,Cruzain inh noDet,MARV entry inh,RE007 growth inh,NS1 function inh,Cruzain Triton,StopGo reporter
COc1ccc2[nH]cc(CCNC(=O)Nc3ccc(F)cc3)c2c1,·,-27%[46.1 µM],0%,-8%[46.1 µM],·,·,-7.3%,-14%
O=C(Nc1cc2ccccc2oc1=O)c1ccccc1,-4%,2.5µM*,·,1.3µM*,-4%,·,·,-81%
CCOC(=O)C(C)Oc1cccc2c(=O)n(CC(=O)Nc3ccc(OCC)cc3)ccc12 (stereo not drawn),-3%,·,21%,-2%,-2%,10%,-1.1%,-16%
CN(C)CCCN(C(=O)c1ccc(S(=O)(=O)N2CCCC2)cc1)c1nc2ccc(Br)cc2s1,-7%,?,·,10µM*,0%,-4%,·,-25%
COc1ccc(NC(=O)CCC(=O)NCCO)cc1,-1%,3%,·,3%[46.1 µM],2%,-7%,·,-4%
CCC(=O)Nc1cccc(C2=NOC3(C2)C[C@H](C(N)=O)N(C(=O)c2ccc(Cl)cc2)C3)c1 (stereo partly drawn),-1%,·,·,·,2%,-8%,·,8%
Cc1ccccc1-c1nc(CS(=O)CC(=O)NCCCN(C)c2ccccc2)c(C)o1 (stereo not drawn),2%,-6%,?,?,-14%,-43%,-3.2%,?
Cc1ccc(NC(=O)c2cccc(OCc3c(C)noc3C)c2)cc1,-4%,7%,1%,?,-9%,-61%,-9.4%,10%
Cc1ccc(/C=C/C(=O)N(Cc2cccs2)C2CCS(=O)(=O)C2)cc1 (stereo not drawn),0%,·,·,·,16%,-7%,·,-13%
CCOC(=O)C1CCN(C(=O)C(=O)Nc2ccc3nc4n(c(=O)c3c2)CCCCC4)CC1,3%,·,·,·,14%,-6%,·,0%
Cc1ccc(CC(=O)NCCS(=O)c2ccc(C)cc2)cc1 (stereo not drawn),0%,1%,·,17%[46.1 µM],-10%,10%,·,-18%
Cc1ncc(N=Nc2ccccc2)c(-c2ccccc2)n1,3%,-3%,-18%,2%,-21%,-15%,-0.4%,-25%
COc1ccc(NC(=O)c2ccc(NC(=O)c3ccncc3)cc2)cc1,-1%,4%[46.1 µM],·,24%[46.1 µM],-7%,2%,·,-3%
O=[N+]([O-])c1cc(/C=N/N2CCOCC2)cs1,-5%,16%,·,8%,?,-80%,·,3%
CN(C)C(=S)NC(=NCc1ccc([N+](=O)[O-])cc1)c1ccccc1,4%,·,·,·,2%,1%,·,-9%
COc1ccc(NC(=O)CSCC(=O)N(C)CC(=O)Nc2cccc3ccccc23)cc1,-4%,-2%,·,-5%[46.1 µM],12%,·,·,6%
O=C(CCC1CCCC1)N=C1SC2CS(=O)(=O)CC2N1c1ccccc1F (stereo not drawn),-1%,·,·,·,-10%,-3%,·,-12%
O=C(Nc1nc(=S)ss1)c1ccc(Cl)cc1Cl,3%,-1%,-4%,?,7%,-6%,-12%,-10%
C/C(=N\NS(=O)(=O)c1ccc([N+](=O)[O-])cc1)c1c[nH]c2ccccc12,-3%,9%[46.1 µM],·,9%[46.1 µM],-8%,-17%,·,25%
O=C(Nc1ccc(Cl)cn1)C1CCN(c2ncnc3c2nc2n3CCCCC2)CC1,-4%,-6%[46.1 µM],·,3.5µM*,-5%,-12%,·,?
CC(=O)Nc1c(O)nc(SCC(=O)Nc2nnc(CC(C)C)s2)[nH]c1=O,-16%,4%,-23%,16%[46.1 µM],-5%,-7%,-8.8%,17%
CC(C)C[C@@H](CSc1ccccc1)N1CCN(CCc2ccccc2)CCC1=O,-5%,·,·,·,5%,-16%,·,23%
CCN(CC)c1ncccc1C(=O)NCc1cccs1,10%,-2%,12%,-5%,0%,-4%,1.2%,·
CCOC(=O)[C@@H]1[C@H]2COc3ccccc3[C@@H]2N2C(=O)N(c3ccc(Cl)cc3)C(=O)[C@]12C,5%,·,·,·,-16%,6%,·,9%
COCCN(C(=O)C(C)C)c1nnc(-c2cccc(C)c2)s1,-5%,-18%,?,4%,-10%,-21%,-4.9%,-14%
Fc1ccc(NC(=S)NCc2cccnc2)cc1,-1%,-3%,·,0%[46.1 µM],22%,8%,·,56%[activator]
CCOC(=O)c1c(NC(=O)c2ccc(OCC)c(Br)c2)sc2c1CCCC2,·,-13%[46.1 µM],-1%,·,·,·,-0.7%,3%
Cc1ccc(-n2nc3ccc(NC(=O)c4cccc([N+](=O)[O-])c4C)cc3n2)cc1,13%,-23%,-4%,?,1%,10%,-2.9%,-29%
CCOC(=O)CC(NC(=O)CCc1c(C)nc2nc(C)nn2c1C)c1ccc(C)cc1 (stereo not drawn),-2%,-1%[46.1 µM],·,9%[46.1 µM],5%,·,·,-14%
Cc1ccc(NC2CCCN(C(=O)c3ccc(C)c(N4CCNC4=O)c3)C2)cc1C (stereo not drawn),0%,1%,·,13%,7%,9%,·,-23%
O=C(NNC(=O)c1cc(-c2ccc(Cl)cc2)nc2ccccc12)c1csc(N2CCOCC2)n1,1%,?,·,?,-27%,·,·,-17%
CC(C)Oc1ccc(/C=C(\C#N)C(=O)NC2CC2)cc1,·,7%[46.1 µM],·,2%[46.1 µM],-7%,·,·,0%
Cc1nc([N+](=O)[O-])c(C(=O)OCc2ccccc2Br)n1C,-3%,?,·,-10%[46.1 µM],8%,·,·,-19%
COc1cccc(-c2nnc(-c3ccccc3NC(=O)c3ccc(C(C)(C)C)cc3)o2)c1,0%,1%[46.1 µM],·,?,5%,2%,·,19%
CC(=O)Nc1cccc(NC(=O)c2ccc(C)c([N+](=O)[O-])c2)c1,-1%,-2%,·,22%[46.1 µM],9%,·,·,12%
CCOc1ccccc1NC(=O)N1CCc2ccccc2C1,-7%,2%[46.1 µM],·,4%[46.1 µM],1%,-45%,·,0%
CC1CCN(C(=O)COC(=O)c2cccs2)CC1,-6%,3%,·,13%,-15%,·,·,-16%
O=C(COC(=O)c1ccc2ncsc2c1)Nc1cc(Cl)ccc1F,5%,8%,·,23%,?,·,·,-10%
COc1cccc(/C=C/c2ccc3cccc(O)c3n2)c1,-6%,·,·,?,-25%,-1%,·,-24%
COC(=O)c1cc(NC(=O)CN2CCOCC2)cc(C(=O)OC)c1,8%,-3%,6%,-4%,-18%,4%,3.5%,-9%
O=C(NN=Cc1ccc([N+](=O)[O-])cc1)C1CC1,·,?,·,10%,2%,·,·,16%
COc1cc(/C=C/C(=O)OCC(=O)NCCc2ccc(S(N)(=O)=O)cc2)ccc1OCC#N,-1%,0%,·,3%[46.1 µM],-16%,·,·,6%
COc1ccc(CCCC(=O)Nc2cc(C)ccc2OC)cc1,0%,·,·,·,-7%,-14%,·,-17%
O=C1NC(Cc2c[nH]c3ccccc23)C(=O)N1Cc1ccc(CN2C(=O)NC(Cc3c[nH]c4ccccc34)C2=O)cc1 (stereo not drawn),1%,·,·,·,4%,?,·,0%
Cc1ccccc1-c1noc(-c2ccc(N3CCOCC3)c([N+](=O)[O-])c2)n1,·,-4%[46.1 µM],18%,-5%[46.1 µM],·,·,-12%,0%
CCOC(=O)c1c(-c2ccc(C)o2)csc1NC(=O)CSc1ncn[nH]1,-17%,15%,12%,0%,9%,6%,-13%,-16%
COc1ccc(S(=O)(=O)N2CCC(C(=O)NC3CCCCC3)CC2)cc1C,0%,-8%,·,-2%[46.1 µM],-13%,-7%,·,3%
Cc1ccc(C#N)c(SCC(=O)Nc2nccs2)n1,1%,·,·,·,-14%,-2%,·,0%
CC1(c2ccccc2)NC(=O)N(CC(=O)N2CC(=O)Nc3ccccc32)C1=O (stereo not drawn),-13%,-9%[46.1 µM],·,2%[46.1 µM],10%,·,·,5%
Cc1ccccc1-c1nc(CN2CCC(C(=O)N3CCN(c4ccccn4)CC3)CC2)c(C)o1,-7%,·,-7%,-1%,-17%,-7%,0.8%,?
COC(=O)c1cc(=O)n(Cc2cccs2)c(=Nc2ccccc2)s1,-1%,·,·,·,26%,-1%,·,?
COc1ccccc1NC(=O)C1CC(=O)OC1c1ccccc1 (stereo not drawn),2%,5%,4%,?,-5%,-6%,3.9%,-18%
O=C(O)CSc1nnc(-c2cccs2)n1-c1ccc(Cl)cc1,3%,1%,-8%,3%,-5%,?,-2.1%,0%
Cc1c(C(=O)/C=C/N(C)C)nnn1-c1ccc(Cl)cc1C#N,-2%,1%,·,2%[14.2 µM],-14%,0%,·,-2%
COc1ccc(OC)c([C@@H]2Nc3ccc(C(=O)O)cc3[C@@H]3C=CC[C@@H]32)c1,·,5%[46.1 µM],-4%,·,·,·,-7.7%,0%
C/C(=N\NC(=O)c1cc(C)[nH]n1)c1cccs1,-1%,?,·,-3%[14.2 µM],-19%,·,·,-14%
COc1ccc(CN2CCCC(C(=O)c3cccc(C(F)(F)F)c3)C2)cc1O (stereo not drawn),0%,-26%[46.1 µM],·,-24%[46.1 µM],2%,1%,·,2%
COc1ccccc1NC(=O)NNC(=O)CN1C(=O)COc2ccccc21,9%,-11%,·,6%[46.1 µM],3%,5%,·,-10%
CCN(CCCNS(=O)(=O)c1cc(-c2cc(C)no2)ccc1C)Cc1ccccc1,-1%,·,·,·,4%,6%,·,22%
Clc1ccc(Cn2ccc3ccccc32)cn1,2%,-24%[46.1 µM],·,?,14%,1%,·,-17%

# New compounds follow.
SMILES,SARS PLpro yeast,Lassa entry inh,Cruzain inh noDet,MARV entry inh,RE007 growth inh,NS1 function inh,Cruzain Triton,StopGo reporter
Cc1ccc(N2CCN(/N=C/c3sccc3C)CC2)cc1,-4%,-12%,?,-6%,-6%,6%,5.2%,12%
COc1ccc(/C=C/C2=NN(Cc3ccccc3)C(=O)CC2)cc1,-6%,?,·,?,-4%,·,·,3%
CCCOc1ccc(S(=O)(=O)N2C(=O)CC(=O)N(Cc3ccc(OCC)cc3)C2=O)cc1,1%,-8%,·,13%[46.1 µM],9%,-3%,·,-10%
CSc1ncccc1C(=O)OCC(=O)N(CC(C)C)c1c(N)n(Cc2ccccc2)c(=O)[nH]c1=O,-6%,·,·,·,-1%,-2%,·,-1%

# Rows are unselected (roughly 4.6% active in at least one column).
